MLL AF4-AF9 inh: MLL-AF4/AF9 protein interaction inhibition. AlphaScreen, biotin-AF4 peptide binding to FLAG-AF9. inhibition, % at 10 µM. actives 0.47% (n = 350,000);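 active means every replicate reaching a set inhibition limit, whatever the replicate mean, cut at about 25% in these data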;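 further: 0% = plate neutral control median and 100% = total signal loss; the record names both 10 and 1 µM as test concentration; the first replicate is given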
Target sequence (P42568 whole entry, looked up): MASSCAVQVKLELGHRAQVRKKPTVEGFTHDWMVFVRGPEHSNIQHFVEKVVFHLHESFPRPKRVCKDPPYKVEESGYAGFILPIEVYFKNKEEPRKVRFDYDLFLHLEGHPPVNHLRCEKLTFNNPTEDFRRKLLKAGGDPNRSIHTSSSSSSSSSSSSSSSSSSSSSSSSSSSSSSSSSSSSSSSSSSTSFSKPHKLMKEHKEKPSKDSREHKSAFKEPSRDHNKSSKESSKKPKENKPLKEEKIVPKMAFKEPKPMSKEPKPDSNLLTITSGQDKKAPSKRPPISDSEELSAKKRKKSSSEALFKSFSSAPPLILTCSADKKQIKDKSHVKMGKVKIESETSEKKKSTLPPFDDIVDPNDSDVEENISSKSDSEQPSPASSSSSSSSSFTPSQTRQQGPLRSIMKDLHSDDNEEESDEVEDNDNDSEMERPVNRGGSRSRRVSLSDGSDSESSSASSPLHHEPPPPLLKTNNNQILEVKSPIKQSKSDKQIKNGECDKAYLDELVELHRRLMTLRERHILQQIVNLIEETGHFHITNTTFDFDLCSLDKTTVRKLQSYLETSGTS
rRNA inh HTS: inhibits bacterial ribosomal RNA function over humanized ribosomes. actives 1.6% (n = 350,000). E. coli WT GFP vs humanized-ribosome RFP mutants, fluorescence, 24 h; active compounds read low; DMSO median 0, no signal -100. GFP signal change (wild-type ribosome), % (test concentration not listed). AID 720706;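 active means significant combined selectivity score with lowered wild-type GFP, culture density cut under 30%, mutant RFP and density less affected; inactive means any of these conditions unmet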; further: one replicate is shown; some compounds called inactive have numbers as strong as hits
FGF22 binding: FGF22 (human) thermal shift binding; Q9HCT0; recombinant FGF22 thermal shift, SYPRO orange fluorescence; percent of sucrose octasulfate shift, DMSO zero; calls only at 9.99 µM; actives 1.5% (n = 340,000);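 active means melting point raised past a set limit in the mean and every replicate; three in four hits are not shown here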
Target sequence (Q9HCT0 whole entry, looked up): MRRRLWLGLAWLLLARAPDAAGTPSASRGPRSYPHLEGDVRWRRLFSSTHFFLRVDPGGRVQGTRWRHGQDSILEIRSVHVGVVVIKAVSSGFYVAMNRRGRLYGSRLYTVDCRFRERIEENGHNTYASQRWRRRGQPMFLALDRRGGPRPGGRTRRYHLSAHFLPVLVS
rRNA inh HTS OD600: also measured in rRNA inh HTS; calls as there; OD600 change, %; measured here: OD600 growth;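 optical density of the mix in the first replicate; 0 = DMSO median and -100 = no signal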
rRNA inh HTS RFP: further read-out of rRNA inh HTS, marked with its call; RFP signal change, %; measured here: RFP humanized mutant strains;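 first replicate; 0 = DMSO median and -100 = no signal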
Numbers without * were called inactive; i = inactive; nt = not tested or not shown; & = joins results of further samples.

SMILES	MLL AF4-AF9 inh	rRNA inh HTS	rRNA inh HTS OD600	rRNA inh HTS RFP	FGF22 binding
COc1ccc(NC(=O)Nc2ccc3c(c2)C(=O)N([C@H](C)CO)C[C@@H](C)[C@H](CN(C)S(=O)(=O)c2cccs2)OCCCC[C@@H](C)O3)cc1	5.2	-5.1	-0.2	-0.7	i
Nc1ccccc1-n1nc2ccc3ccccc3c2n1	-6.9	-15.3	-12.6	-6.1	i
C[C@@H]1CCCCO[C@@H](CN(C)C)[C@@H](C)CN([C@@H](C)CO)C(=O)c2cc(NS(=O)(=O)c3ccc(F)cc3)ccc2O1	-2.7	4.8	3.5	-1.6	i
CCCC(=O)Nc1ccc2c(c1)C(=O)N(C)[C@H]1CC[C@@H](CC(=O)NCc3ccccc3Cl)O[C@@H]1CO2	1.8	-1.6	1.7	0.5	i
Cc1cc(OCC(=O)Nc2cccc(S(=O)(=O)N3CCCC3)c2)ccc1Cl	-1.1	-12.9	-20.1	-5.1	i
N#C[C@H]1[C@H](c2ccc(C#Cc3ccccc3F)cc2)[C@@H](CO)N1C(=O)C1CC1	-1.3	-8.5	-49.2	25.0	i
CC(C)NC(=O)N1C[C@@H]2[C@H](c3ccccc31)[C@@H](CO)N2C(=O)Nc1cccc(F)c1	-4.4	3.0	16.0	0.8	i
O=C(NCc1cccs1)c1ccc2sc([C@H]3C[C@H](O)[C@@H](CO)O3)nc2c1	-4.1	8.6	20.1	5.6	i
COc1ccc(S(=O)(=O)Nc2ccc3c(c2)C(=O)N([C@@H](C)CO)C[C@@H](C)[C@H](CN(C)S(=O)(=O)c2cn(C)cn2)O3)cc1	-6.6	3.0	-4.2	0.3	i
C[C@@H]1CN([C@H](C)CO)C(=O)c2cc(NC(=O)Nc3ccc(F)cc3)ccc2O[C@H]1CN(C)Cc1ccc(Cl)c(Cl)c1	-3.0	-6.5	-2.1	0.3	i
COCCNC(=O)C[C@H]1CC[C@H]2[C@H](COc3ccc(NC(=O)c4cc(C)on4)cc3C(=O)N2C)O1	-1.0	3.8	4.9	-0.1	i
COc1ccc2c3c(n(C)c2c1)[C@H](CO)N(C(=O)C1CCOCC1)CC31CN(C(=O)C2CC2)C1	-16.3	8.1	0.1	-2.1	i
COc1ccc(NC(=O)Nc2cccc3c2O[C@@H](CN(C)S(=O)(=O)c2ccc(C)cc2)[C@@H](C)CN([C@H](C)CO)C3=O)cc1	1.5	-7.0	-7.0	-0.7	i
C[C@H]1COc2cc(N3CCC[C@@H]3CO)ccc2S(=O)(=O)N1	-2.5	13.3	3.1	-0.9	i
CC=Cc1ccc2n(c1=O)C[C@H]1[C@H](CO)[C@@H](C(=O)N(C)C)[C@@H]2N1CC1CC1 (mixture of isomers)	1.5	-0.1	-1.9	-3.9	i
COc1cccc(S(=O)(=O)Nc2ccc3c(c2)[C@@H]2C[C@@H](CC(=O)N4CCCCC4)O[C@H](CO)[C@@H]2O3)c1	0.7	-7.6	-3.4	-1.9	i
CCCNC(=O)N1CCC2(CC1)CN(Cc1cccc(OC)c1)[C@@H](CO)c1[nH]c3cc(OC)ccc3c12	-12.7	1.2	-6.6	-0.9	i
Cc1noc(C)c1C(=O)N1CCC1(C)C(=O)NS(=O)(=O)c1cccc(Cl)c1 (stereo not given)	-1.0	4.8	7.9	-2.3	i
COc1cc(OC)cc(-c2c(Sc3ccccc3)c3cc(-c4ccc5c(c4)OCCO5)ccc3n2C)c1	-4.4	20.3	10.0	-0.5	i
C[C@H](O)C#Cc1ccc([C@H]2[C@@H](CO)N3CCCCN(S(=O)(=O)c4ccccc4)C[C@@H]23)cc1	-5.7	-3.1	5.9	1.7	i
OC[C@@H]1[C@@H](c2ccccc2)C2(CN(CCC(F)(F)F)C2)N1Cc1ccccc1	3.8	-0.2	0.2	5.2	i
CO[C@H]1CN(C)C(=O)c2ccc(NC(=O)Nc3cc(F)ccc3F)cc2OC[C@H](C)NC[C@H]1C	4.5	-2.4	-3.6	2.4	i
COc1ccccc1-c1ccc([C@@H]2C[C@H]3[C@@H](CN2)CON3C)cc1	-5.4	0.8	1.6	1.8	i
O=S(=O)(c1ccc(Cl)cc1)N1[C@@H]2CNC[C@H]1C2c1ccc(-c2cccc(F)c2)cc1 (stereo not given in full)	-5.0	-60.5&-29.3	-76.2&-25.0	-15.7&4.9	i
C[C@H](CO)N1C[C@H](C)[C@H](CN(C)S(=O)(=O)c2ccc(F)cc2)Oc2ccc(NS(=O)(=O)c3cn(C)cn3)cc2C1=O	-2.2	8.8	13.3	-2.2	i
CO[C@H]1CN(C)C(=O)c2cc(NC(=O)c3cccc(F)c3)ccc2OC[C@H](C)N(CC2CC2)C[C@H]1C	-12.2	-2.3	-4.5	0.3	i
C[C@H](CO)N1C[C@H](C)[C@H](CN(C)C(=O)Nc2ccccc2)Oc2ccc(NS(=O)(=O)c3ccc(Cl)cc3)cc2CC1=O	0.1	0.6	-9.7	0.4	i
CC=Cc1ccc2n(c1=O)C[C@H]1[C@H](CO)[C@@H](C(=O)NCc3ccc(F)cc3)N(C)[C@@H]21 (mixture of isomers)	0.6	-2.5	-4.5	-2.0	i
Cc1ccccc1-c1ccc([C@@H]2[C@@H](CO)N3CCCCN(C(=O)CN4CCOCC4)C[C@@H]23)cc1	-3.6	3.3	-4.5	1.4	i
Cc1ccc(S(=O)(=O)Nc2ccc3c(c2)C(=O)N([C@@H](C)CO)C[C@H](C)[C@@H](CN(C)S(=O)(=O)c2ccccc2)O3)cc1	-1.1	-2.7	3.4	-3.2	i
O=C(CN1CCOCC1)NCC[C@@H]1CC[C@H](NC(=O)Cc2ccccn2)[C@@H](CO)O1	-1.2	1.0	0.6	1.4	i
COc1ccc(S(=O)(=O)N(C)C[C@H]2Oc3c(NC(=O)NC4CCCCC4)cccc3C(=O)N([C@@H](C)CO)C[C@H]2C)cc1	1.1	-4.3	-1.7	-0.6	i
CCCNC(=O)N1[C@H](C#N)[C@H](c2ccc(-c3ccccc3F)cc2)[C@@H]1CO	0.7	-3.2	-25.9	0.7	i
COc1ccc(C(=O)Nc2ccc3c(c2)OC[C@@H](C)N(C)C[C@H](C)[C@H](OC)CN(C)C3=O)cc1	-1.0	-0.4	0.9	0.6	i
COc1ccc(CN(C)C[C@H]2Oc3c(NC(=O)C4CCCCC4)cccc3C(=O)N([C@H](C)CO)C[C@@H]2C)cc1	5.4	-9.3	-4.7	1.2	i
CC(C)(C)N1C(=O)c2ccccc2NC(=O)C1C(=O)NCc1ccco1 (stereo not given)	-6.0	32.7	26.3	3.2	i
CN1OC[C@@H]2CN(C(=O)C(C)(C)C)[C@H](c3cccc(-c4ccccc4)c3)C[C@@H]21	-3.3	2.0	-0.5	1.5	i
COc1cccc(-c2ccc3c(c2)O[C@H](CN(C)C(=O)C2CC2)[C@H](C)CN([C@H](C)CO)S3(=O)=O)c1	0.0	-0.4	-3.9	9.0	i
CCC(=O)NC[C@@H]1[C@@H](c2ccccc2)[C@H](CO)N1C(=O)C1CCC1	-1.0	-2.0	-6.8	-1.6	i
CCS(=O)(=O)N1CC(=O)N2[C@H](C1)[C@@H](c1ccc(C#CCC(C)C)cc1)[C@@H]2CO	4.8	2.5	-19.2	1.8	i
CO[C@H](CN(C)C(=O)c1cnccn1)[C@@H](C)CN([C@@H](C)CO)S(=O)(=O)c1ccc(F)cc1	0.1	0.8	-2.4	-3.7	i
C[C@@H]1CN([C@@H](C)CO)C(=O)c2cccc(NC(=O)C3CCOCC3)c2O[C@H]1CN(C)Cc1ccc(C(=O)O)cc1	2.5	3.3	5.6	1.1	i
C[C@H](CO)N1C[C@H](C)[C@@H](CN(C)C(=O)NC2CCCCC2)OCCCC[C@H](C)Oc2ccc(NS(=O)(=O)c3ccccc3)cc2C1=O	0.0	2.6	-6.1	4.6	i
CC(C)NC(=O)N(C)C[C@@H]1Oc2ccc(NC(=O)C3CC3)cc2C(=O)N([C@H](C)CO)C[C@@H]1C	1.1	1.4	4.6	0.7	i
CCOC(=O)[C@]12CCCC=C1N(CCc1ccc(OC)c(OC)c1)C(=O)[C@H](CC(=O)N1CCSCC1)C2	5.4	5.7	-17.2	4.7	i

Profiles from above. Values in the order: MLL AF4-AF9 inh, rRNA inh HTS, rRNA inh HTS OD600, rRNA inh HTS RFP, FGF22 binding
COc1ccc(C(=O)Nc2ccc3c(c2)OC[C@@H](C)N(C)C[C@H](C)[C@H](OC)CN(C)C3=O)cc1 across the screens: -1.0, -0.4, 0.9, 0.6, i
C[C@H](CO)N1C[C@H](C)[C@@H](CN(C)C(=O)NC2CCCCC2)OCCCC[C@H](C)Oc2ccc(NS(=O)(=O)c3ccccc3)cc2C1=O across the screens: 0.0, 2.6, -6.1, 4.6, i

The list continues.
SMILES	MLL AF4-AF9 inh	rRNA inh HTS	rRNA inh HTS OD600	rRNA inh HTS RFP	FGF22 binding
O=C(C[C@@H]1C[C@@H]2c3cc(NC(=O)Nc4ccccc4)ccc3O[C@@H]2[C@H](CO)O1)NCc1ccccc1	-0.1	1.3	0.3	0.2	i
COc1cc(C)ccc1Oc1ccc([N+](=O)[O-])cc1	1.4	-23.2	-47.9	-12.1	i
C[C@@H]1CCCCO[C@@H](CN(C)C(=O)Nc2ccc(F)cc2)[C@H](C)CN([C@@H](C)CO)C(=O)c2cc(NC(=O)CCC(F)(F)F)ccc2O1	-3.7	1.9	0.3	-0.2	i
COCC(=O)N(C)C[C@H]1Oc2cc(C3=CCCCC3)ccc2S(=O)(=O)N([C@H](C)CO)C[C@@H]1C	2.1	-2.4	-2.8	2.4	i
O=C(C[C@@H]1CC[C@@H](NC(=O)c2ccc3c(c2)OCO3)[C@H](CO)O1)NCc1ccc(Oc2ccccc2)cc1	-1.2	-6.2	1.5	2.6	i
COCC#Cc1ccc2c(c1)O[C@@H](CN(C)Cc1ccccn1)[C@@H](C)CN([C@H](C)CO)S2(=O)=O	-0.5	-2.2	-1.2	-2.3	i
C[C@@H]1CN([C@H](C)CO)C(=O)c2cc(NC(=O)Nc3ccc(F)cc3)ccc2O[C@@H]1CN(C)Cc1ccncc1	0.7	-2.2	-8.2	0.0	i
COc1ccc(C(C)(O)c2nc(-c3ccc(Cl)cc3)cs2)cc1 (stereo not given)	-4.4	-32.4	-72.0	-0.7	i
CCNC(=O)C[C@H]1CC[C@H]2[C@@H](COC[C@@H](O)CN2C(=O)Nc2ccc(Cl)c(Cl)c2)O1	-0.8	-59.3	-76.4	-19.4	i
O=C(N[C@H]1CC[C@@H](CC(=O)N2CCOCC2)O[C@H]1CO)c1cccc(F)c1	-1.2	0.7	3.5	-0.5	i
CO[C@@H]1CN(C)C(=O)c2cc(NC(=O)Nc3ccc(F)cc3)ccc2OC[C@@H](C)NC[C@@H]1C	-8.8	-1.7	-1.3	1.2	i
CC(C)NC(=O)N(C)C[C@@H]1Oc2ccc(NC(=O)CCN3CCOCC3)cc2C(=O)N([C@H](C)CO)C[C@H]1C	-1.5	2.4	1.8	-2.1	i
COCC(=O)N1[C@@H](CO)[C@@H](c2ccccc2)C12CN(C(=O)Nc1ccccc1F)C2	-2.2	3.8	0.0	1.8	i
Cc1cccc(-c2ccc([N+](=O)[O-])cc2CN2CCN(c3ncc(Cc4ccccc4)cn3)CC2)c1	-3.1	0.5	6.7	39.6	nt
CC(C)NC(=O)Nc1ccc2c(c1)C(=O)N([C@H](C)CO)C[C@@H](C)[C@H](CN(C)C(=O)Nc1cccc3ccccc13)O2	1.0	5.0	8.6	-0.8	i
COc1ccc(S(=O)(=O)N(C)C[C@@H]2Oc3c(NC(=O)c4cc(C)nn4C)cccc3C(=O)N([C@H](C)CO)C[C@@H]2C)cc1	-16.3	-4.8	-5.5	1.6	i
C[C@H]1CN([C@@H](C)CO)C(=O)c2cccc(NC(=O)c3ccncc3)c2O[C@H]1CN(C)Cc1ccc(-c2ccccc2)cc1	0.5	-2.5	-1.2	1.4	i
CO[C@@H]1CN(C)C(=O)c2ccc(NS(=O)(=O)c3ccc(Cl)cc3)cc2OC[C@H](C)N(C(=O)NC(C)C)C[C@H]1C	-1.4	-2.4	-4.6	1.6	i
CCCNC(=O)N(C)C[C@@H]1Oc2cc(C#Cc3ccccn3)ccc2S(=O)(=O)N([C@H](C)CO)C[C@H]1C	-3.8	-5.2	5.0	-0.2	i
Cn1c(SCC(=O)NC2CCCCC2)nnc1C(F)(F)F	-0.9	3.7	5.2	-3.6	i
CO[C@H](CN(C)Cc1cc(F)ccc1F)[C@H](C)CN([C@@H](C)CO)S(=O)(=O)c1ccc(F)cc1	-27.7	-5.6	-12.7	-0.6	i
COc1cccc(C#Cc2cnc3c(c2)C(=O)N([C@H](C)CO)C[C@@H](C)[C@H](CN(C)C(C)=O)O3)c1	-1.2	2.8	-1.3	0.1	i
Cc1cc(F)ccc1C(O)c1ncc(-c2cccc3ccccc23)[nH]1 (stereo not given)	9.6	-28.1	-45.2	12.6	i

Random excerpt: 3 entries already listed
SMILES	MLL AF4-AF9 inh	rRNA inh HTS	rRNA inh HTS OD600	rRNA inh HTS RFP	FGF22 binding
O=C(C[C@@H]1C[C@@H]2c3cc(NC(=O)Nc4ccccc4)ccc3O[C@@H]2[C@H](CO)O1)NCc1ccccc1	-0.1	1.3	0.3	0.2	i
COCC(=O)N1[C@@H](CO)[C@@H](c2ccccc2)C12CN(C(=O)Nc1ccccc1F)C2	-2.2	3.8	0.0	1.8	i
Cc1ccc(S(=O)(=O)Nc2ccc3c(c2)C(=O)N([C@@H](C)CO)C[C@H](C)[C@@H](CN(C)S(=O)(=O)c2ccccc2)O3)cc1	-1.1	-2.7	3.4	-3.2	i

High-throughput results (PubChem)

This is a subset; the hit share may differ from the screen's.
